Bioassay records: PubChem, several laboratories
Mtb growth: M. tuberculosis H37Rv growth inhibitors, H37Rv strain (AID 1626) | M. tuberculosis H37Rv growth inhibition; higher % means a stronger effect | inhibition, % at 10 µM; hits with a dose series show IC50 in µM | actives 0.95% (n = 220,000);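 active = confirmed in a dose series; inconclusive = inhibition above 80% but not taken into the dose series; inactive = below 80% or under 30% at every dose of the series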;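 also: bacteria incubated seven days before Alamar blue readout; 0% = bacteria only wells and 100% = bacteria with antibiotic wells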
RecA intein inh: Mtb RecA intein splicing inhibitors, primary screen, biochemical, fluorescence, HTS; actives 0.75% (n = 290,000); inhibition, %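 (about 9 µM by stock and volumes)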; AID 2221, 2009; Protein RecA (Mycobacterium tuberculosis (strain ATCC 25618 / H37Rv)), P9WHJ3; cell-free RecA intein splicing; in the data active = inhibition above about 30%; inconclusive = no clear call, values can overlap the other calls;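 also: 0% = vehicle wells and 100% = reference inhibitor control wells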
Target sequence (P9WHJ3 whole entry, looked up): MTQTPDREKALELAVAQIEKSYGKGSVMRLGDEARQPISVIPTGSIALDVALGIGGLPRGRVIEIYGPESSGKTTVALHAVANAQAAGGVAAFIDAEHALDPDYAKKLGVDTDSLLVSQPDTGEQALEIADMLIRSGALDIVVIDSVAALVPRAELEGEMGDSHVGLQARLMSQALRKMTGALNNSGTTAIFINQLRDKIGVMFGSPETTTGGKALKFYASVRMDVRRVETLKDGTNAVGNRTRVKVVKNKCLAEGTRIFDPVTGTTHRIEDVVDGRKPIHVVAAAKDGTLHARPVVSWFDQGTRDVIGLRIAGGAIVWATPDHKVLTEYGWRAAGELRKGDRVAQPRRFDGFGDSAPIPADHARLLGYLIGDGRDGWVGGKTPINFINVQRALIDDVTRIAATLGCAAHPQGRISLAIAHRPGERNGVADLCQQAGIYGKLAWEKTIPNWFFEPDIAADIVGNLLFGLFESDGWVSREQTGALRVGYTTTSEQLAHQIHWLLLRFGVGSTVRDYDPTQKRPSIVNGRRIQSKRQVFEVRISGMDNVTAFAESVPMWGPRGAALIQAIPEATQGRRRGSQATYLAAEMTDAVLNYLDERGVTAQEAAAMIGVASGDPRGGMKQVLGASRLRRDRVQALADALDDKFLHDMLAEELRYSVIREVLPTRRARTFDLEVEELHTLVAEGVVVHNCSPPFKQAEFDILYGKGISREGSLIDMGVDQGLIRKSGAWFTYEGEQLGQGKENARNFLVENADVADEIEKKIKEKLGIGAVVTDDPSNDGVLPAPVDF
YopH PTP inh: YopH tyrosine phosphatase inhibitors, primary screen, biochemical, fluorescence Ex485/Em525; YopH tyrosine phosphatase [Yersinia enterocolitica]; inhibition, %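 (about 10 µM by stock and volumes)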; actives 0.16% (n = 140,000);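 active = inhibition of 50% or more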;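 also: controls were vehicle for no effect and minimum signal wells for full effect; inactives centre near -20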
Arbovirus inh: antivirals against arbovirus infection, primary screen, cell-based, full library, 10K replicate subset | arbovirus infection cell-based antiviral screen | inhibition, % at 10 µM | actives 0.37% (n = 200,000) | AID 1251, 2008;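 active = inhibition from about 30%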;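 also: bluetongue infection of BSR cells; cell survival read as ATP light after 72 h; 0% = infected wells without compound and 100% = uninfected wells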
Mtb bLac sens: beta-lactam sensitization of Mtb H37Rv, H37Rv; actives 0.27% (n = 330,000); inhibition, % at 25 µM; M. tuberculosis H37Rv growth with meropenem, percent inhibition; hits of this screen are not shown here;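 active = about 74% or more and at least 40 points above the plate without the antibiotic, then above 30% in a dose series; inconclusive = first-round hits that could not be retested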;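 also: growth measured after seven days incubation then overnight dye step; 0% = bacteria only wells and 100% = bacteria with antibiotic; twin plates without the antibiotic show which effects depend on it; some results filed as inactive read as strong as hits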
Arbovirus inh repeat: second read-out of Arbovirus inh, no call of its own (marks repeat the call); inhibition, %; measured here: 10K subset replicate screen; many hits read low in the repeat;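 first of two repeat runs on a subset; 0% = infected and 100% = uninfected wells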
An asterisk follows results filed as active; u = inconclusive; x = no result given.

SMILES	Mtb growth	RecA intein inh	YopH PTP inh	Arbovirus inh	Mtb bLac sens	others
Cc1cccc(/C=N/NC(=O)c2ccc(Br)cc2)c1	1%	0.8	-14	-7	4
O=C(c1cc(-c2cccs2)nc2ccccc12)N1CCN(S(=O)(=O)c2ccccc2)CC1	4%	4.4	-6	-7	32
Cc1c(C(=O)O)sc(S(=O)(=O)N2CCNCC2)c1C(=O)O	17%	-0.1	x	x	x
O=C(NC1CCCCC1)c1cc([N+](=O)[O-])ccc1N1CCCCC1	1%	3.9	-4	-1	-5
Cc1ccc2c(c1)NC(=O)C(CC(=O)NCCCN1CCN(C3CCCCC3)CC1)O2 (stereo not given)	-11%	x	-22	8	x
O=C1CCCCC/C1=N/Nc1ccc(OCc2ccccc2)cc1	-2%	6.1	x	x	2
NC(=O)CSc1ncnc2c1nnn2Cc1ccc(F)cc1	-7%	13	x	-2	-1
CCOC(=O)N1CCN(C(c2cccnc2)c2ccc3cccnc3c2O)CC1 (stereo not given)	-6%	9.8	-31	-23	6
CCCc1nc2oc3c(OCC)ncnc3c2c2c1COC(C)(C)C2	u	-0.2	-4	5	x
CC(/C=N/NC(=O)c1nnn(-c2nonc2N)c1CN1CCCCC1)c1ccccc1 (stereo not given)	x	0.1	x	x	-5
COCCn1c(SCC(=O)Nc2nnc(C)s2)nnc1-c1ccncc1	-5%	0.8	-142	0	6
Cc1ccc2c(NC(=S)NC(=O)c3ccccc3)cccc2n1	x	-0.9	x	x	-8
CCN(c1ccc(NC(=O)c2ccc(N3CCCC3=O)cc2)cc1)C(C)C	x	0.7	x	x	10
O=Cc1ccc(OC(=O)c2cccnc2)cc1	7%	7.2	x	9	55
O=C(COc1ccccc1Br)NCc1ccccn1	-7%	1.6	6	1	-7
CN1CCc2c(sc3c2c(=O)n(-c2cccc(Cl)c2)c2nncn32)C1	0%	1.2	-31	x	0
C=CCOc1c2ccc(C(=O)NC3CCCc4ccccc43)cc2nn1C (stereo not given)	-7%	-2.7	-20	-3	-3
CC1Cc2ccccc2N1C(=O)COC(=O)Cn1nnc(-c2ccccc2)n1 (stereo not given)	-5%	0.3	-10	-6	95
N#CCC(=O)NC1CCC(CC2CCC(NC(=O)CC#N)CC2)CC1 (stereo not given)	x	-6.4	x	x	-5
Cc1cnc(NC(=O)C2CC=CCC2)s1 (stereo not given)	x	-11	x	x	7
Cc1ccccc1NC(=O)C1CCN(S(=O)(=O)c2cccs2)CC1	0%	-1.2	x	0	1
O=C(CNC(=O)c1ccccc1Br)N/N=C/c1cc(Br)ccc1O	-4%	5.0	x	-24	-6
Cc1ccc(-c2onc3ccc(C=O)cc23)cc1	-6%	-133	-7	8	81
COc1ccc(NC(=O)C2CCCN(c3nccc(C)n3)C2)cc1 (stereo not given)	3%	0.8	x	3	0
CCOc1ccc(NCCC(O)c2ccc(F)cc2)cc1 (stereo not given)	x	3.5	x	x	70
Nc1ncnc2c1ncn2CCOc1ccccc1	-6%	0.1	-109	-1	-9
COc1ccccc1-n1cc(CN2CCN(CC(C)C)C(CCO)C2)cn1 (stereo not given)	-5%	-4.2	x	-4	-6
CC(/C=C\C=C\c1ccccc1)=N\NC(=O)c1cncc(Br)c1	u	5.3	x	-3	96
Cc1ccc(CN2CCN(Cc3cn(C)nc3C)CC2CCO)o1 (stereo not given)	0%	1.3	x	-4	2
N#C/C(=C(/O)c1ccc(Cl)cc1)c1nc2ccccc2[nH]1	x	-2.3	x	x	1
O=C(CSc1nc(-c2ccco2)cc(C(F)(F)F)n1)NCC1CCCO1 (stereo not given)	-4%	0.4	-1	-7	2
O=C(CSc1nnnn1-c1ccc2c(c1)CCC2)NCc1cccs1	1%	4.3	-26	-6	-2
COc1ccc(CN(CCC(c2ccco2)C(C)C)C(C)=O)cc1OC (stereo not given)	-16%	0.0	x	x	-1
CCCOc1ccc(C(=O)NC(=S)Nc2nc3ccc(C)cc3s2)cc1	1%	x	-35	17	x
COc1cc(C(=O)NCc2nnc(SCC(=O)N3CCCc4ccccc43)o2)cc(OC)c1OC	-2%	2.0	x	-5	-6
Cc1cc(-c2ccccc2)nc2c(Br)c(C(=O)O)nn12	x	1.3	x	x	29
N#CC1=C(N)Oc2nc(-c3ccccc3)[nH]c2C1c1cccnc1 (stereo not given)	-12%	78*	-1	-2	3
CCN1CCN(CC(=O)Nc2c(C(=O)OC)[nH]c3cccc(Cl)c23)CC1	3%	-0.6	-36	-6	x
COCCNC(=O)C(c1cccs1)N(Cc1ccccc1)C(=O)Cn1nnc2ccccc21 (stereo not given)	-1%	-0.3	-13	-2	-11
COCCNc1oc(/C=C/c2ccccc2)nc1C#N	-2%	-54	x	x	-3
O=C(Cc1ccc(Cl)cc1)Nc1cc(S(=O)(=O)N2CCOCC2)ccc1N1CCCC1	11%	7.9	x	-8	-14
CC(C)(C)OC(=O)NCCC(=O)N/N=C/c1ccc2ncccc2c1	-1%	-7.7	x	x	3
COc1ccc(C2CC(C(F)(F)F)n3nc(CO)c(Cl)c3N2)cc1OC (stereo not given)	-3%	0.5	-29	8	-5
CCN(C(=O)CCC(=O)N(CC)c1ccccc1)c1ccccc1	3%	-0.2	-19	2	2
Cc1ccc(C(=O)CN2CCC(NC(=O)C3CCCCC3)CC2)cc1	-4%	2.9	-15	-2	-2
Cc1c(Br)ccc(NC(=O)CCN2C(=O)C3C4CCC(C4)C3C2=O)c1C (stereo not given)	-22%	-4.1	-27	0	-10
O=C(CN(C(=O)CCC(=O)Nc1nccs1)c1ccc(F)c(Cl)c1)NCc1ccco1	3%	4.6	7	-5	-9
CC(=O)Nc1ccc(S(=O)(=O)NC2=NCN(CCOC(=O)c3ccccc3)CN2)cc1	-12%	-0.1	-14	9	-6	Arbovirus inh repeat=1
COc1ccccc1NC(=O)Cc1noc(CSc2nnc(C)s2)n1	-3%	-1.1	-38	-8	5	Arbovirus inh repeat=6
Cc1nn(Cc2c(F)c(F)c(F)c(F)c2F)c(C)c1NC(=O)c1ccc(COc2ccc(Cl)cc2Cl)o1	18%	6.5	-13	-15	7
O=C(NC1CC1)c1ccc(COc2ccc(F)cc2)o1	2%	-1.8	-43	-6	3
CC(C)Sc1nnc(Cn2c(=O)sc3ccccc32)n1-c1ccccc1	3%	0.8	-16	10	-4	Arbovirus inh repeat=3
OCCCN=C1CCCc2c1[nH]c1ccc(Cl)cc21	0%	2.3	x	x	-2
Nc1ncnc(Nc2cccc(C(F)(F)F)c2)n1	1%	3.5	-80	9	0
C/C(=N\NC(N)=O)C1CC(Cc2ccccc2)C(=O)O1 (stereo not given)	x	-2.6	x	x	0
Nc1ccc(C(=O)N2CCCC2)cc1CS(=O)(=O)c1ccc(Cl)cc1	-9%	1.0	x	7	-5
COc1ccc(-n2c(/C=C(\C)O)nc(=O)c3c(C)cc(C)nc32)cc1	4%	-0.6	-39	1	27
O=C(NCc1cccnc1)c1nn2cccnc2c1Cl	3%	-2.9	x	1	-11
O=C1CCCN2N=C(SCC(=O)Nc3ccc([N+](=O)[O-])cc3)SC2=N1	x	0.7	x	x	1
CCNC(=S)NNC(=O)c1ccc2ncccc2c1	4%	0.7	x	-7	0

The list continues.
SMILES	Mtb growth	RecA intein inh	YopH PTP inh	Arbovirus inh	Mtb bLac sens	others
O=C(NCCc1ccc2c(c1)OCCO2)c1cc2ccccc2o1	5%	-6.5	-28	9	-20
O=Cc1cn(Cc2ccc([N+](=O)[O-])cc2)c2ccccc12	7%	1.5	-18	-19	-1
Cc1c(Br)c([N+](=O)[O-])nn1CC(=O)Nc1c(C)n(C)n(-c2ccccc2)c1=O	-4%	1.4	-8	14	0
O=C(CN1CCN(c2ccccc2)CC1)NC(=O)NCc1ccco1	-1%	-3.2	-37	2	3
CCCNC(=O)c1oc2ccc3c(c2c1C)C(O)CC(C)(C)O3 (stereo not given)	x	-1.3	x	x	4
O=c1c2c(c(-c3ccccc3)nn1Cc1ccccc1)CCCC2	x	17	x	x	48
Cc1ccccc1CN1CCC(Oc2ccc(C(=O)NCc3ccccn3)cc2)CC1	x	-0.1	x	x	5
NC(=O)C1CCN(c2cc(Cl)nc(N)n2)CC1	-4%	-2.6	x	7	-2
COc1ccc(-c2[nH]n(-c3ccc([N+](=O)[O-])cc3)c(=O)c2C=NCc2ccccc2)cc1	-2%	x	-32	-18	4
Cc1ccccc1Nc1nc2nonc2nc1N1CCOCC1	3%	-1.7	-26	8	-3
Cc1nc2ccccc2nc1N1CCOCC1	2%	-2.1	15	12	-18
Cc1ccc(-c2csc(N/N=C/C=C/c3ccccc3)n2)cc1	31%	-0.4	-39	17	95
COc1ccc(-n2nnnc2CNC(=O)C(=O)c2c(C)[nH]c3ccccc23)cc1	x	0.6	x	x	5
O=C(Nc1nc2ccc(F)cc2s1)c1cccs1	-3%	-0.5	x	14	33
CCCn1nnc(NCc2ccc(OCc3cccs3)c(OC)c2)n1	1%	-0.1	-8	4	1
CC1=NN(C(=O)c2ccc(Cn3nc(C)c(Br)c3C)cc2)C(O)(C(F)(F)F)C1 (stereo not given)	2%	4.7	-23	-36	4

Pulled by compound from the list above (six):
SMILES	Mtb growth	RecA intein inh	YopH PTP inh	Arbovirus inh	Mtb bLac sens	others
Cc1nc2ccccc2nc1N1CCOCC1	2%	-2.1	15	12	-18
O=C(Nc1nc2ccc(F)cc2s1)c1cccs1	-3%	-0.5	x	14	33
Cc1ccccc1NC(=O)C1CCN(S(=O)(=O)c2cccs2)CC1	0%	-1.2	x	0	1
COc1ccc(-n2nnnc2CNC(=O)C(=O)c2c(C)[nH]c3ccccc23)cc1	x	0.6	x	x	5
Cc1ccc(C(=O)CN2CCC(NC(=O)C3CCCCC3)CC2)cc1	-4%	2.9	-15	-2	-2
CC1=NN(C(=O)c2ccc(Cn3nc(C)c(Br)c3C)cc2)C(O)(C(F)(F)F)C1 (stereo not given)	2%	4.7	-23	-36	4

Structural class, the entries above containing an aryl methoxy group.
SMILES	Mtb growth	RecA intein inh	YopH PTP inh	Arbovirus inh	Mtb bLac sens	others
COc1ccc(NC(=O)C2CCCN(c3nccc(C)n3)C2)cc1 (stereo not given)	3%	0.8	x	3	0
COc1ccccc1-n1cc(CN2CCN(CC(C)C)C(CCO)C2)cn1 (stereo not given)	-5%	-4.2	x	-4	-6
COc1ccc(CN(CCC(c2ccco2)C(C)C)C(C)=O)cc1OC (stereo not given)	-16%	0.0	x	x	-1
COc1cc(C(=O)NCc2nnc(SCC(=O)N3CCCc4ccccc43)o2)cc(OC)c1OC	-2%	2.0	x	-5	-6
COc1ccc(C2CC(C(F)(F)F)n3nc(CO)c(Cl)c3N2)cc1OC (stereo not given)	-3%	0.5	-29	8	-5
COc1ccccc1NC(=O)Cc1noc(CSc2nnc(C)s2)n1	-3%	-1.1	-38	-8	5	Arbovirus inh repeat=6
COc1ccc(-n2c(/C=C(\C)O)nc(=O)c3c(C)cc(C)nc32)cc1	4%	-0.6	-39	1	27
COc1ccc(-c2[nH]n(-c3ccc([N+](=O)[O-])cc3)c(=O)c2C=NCc2ccccc2)cc1	-2%	x	-32	-18	4
COc1ccc(-n2nnnc2CNC(=O)C(=O)c2c(C)[nH]c3ccccc23)cc1	x	0.6	x	x	5
CCCn1nnc(NCc2ccc(OCc3cccs3)c(OC)c2)n1	1%	-0.1	-8	4	1

An excerpt (hit frequency here may not be typical).
